Mtb growth: M. tuberculosis H37Rv growth inhibitors, H37Rv strain (AID 1626); M. tuberculosis H37Rv growth inhibition; higher % means a stronger effect; one-dose inhibition, % at 10 µM; IC50 in µM for titrated hits; 220,000 compounds, 0.95% hits;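 active means confirmed in a dose series; inconclusive means inhibition above 80% but not taken into the dose series; inactive means below 80% or under 30% at every dose of the series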;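 further: bacteria incubated seven days before Alamar blue readout; 0% = bacteria only wells and 100% = bacteria with antibiotic wells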
Mtb bLac sens: beta-lactam sensitization of Mtb H37Rv. M. tuberculosis H37Rv growth with meropenem, percent inhibition; hits of this screen are not shown here. inhibition, % at 25 µM. 330,000 compounds, 0.27% hits. AID 434955;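 active means about 74% or more and at least 40 points above the plate without the antibiotic, then above 30% in a dose series; inconclusive means first-round hits that could not be retested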;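 further: growth measured after seven days incubation then overnight dye step; 0% = bacteria only wells and 100% = bacteria with antibiotic; twin plates without the antibiotic show which effects depend on it; some results filed as inactive read as strong as hits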
Arbovirus inh: antivirals against arbovirus infection; arbovirus infection cell-based antiviral screen; inhibition, % at 10 µM; 200,000 compounds, 0.37% hits; AID 1251;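 active means inhibition from about 30%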;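 further: bluetongue infection of BSR cells; cell survival read as ATP light after 72 h; 0% = infected wells without compound and 100% = uninfected wells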
YopH inh: inhibitors of Yersinia enterocolitica YopH tyrosine phosphatase | inhibition, %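 (about 10 µM by stock and volumes)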 | 140,000 compounds, 0.16% hits | fluorescence Ex485/Em525 | AID 898;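 active means inhibition of 50% or more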;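 further: controls were vehicle for no effect and minimum signal wells for full effect; inactives centre near -20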
RecA intein inh: Mtb RecA intein splicing inhibition; inhibition, %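 (about 9 µM by stock and volumes)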; AID 2221; P9WHJ3; cell-free RecA intein splicing, fluorescence; 290,000 compounds, 0.75% hits; in the data active means inhibition above about 30%; inconclusive means no clear call, values can overlap the other calls;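 further: 0% = vehicle wells and 100% = reference inhibitor control wells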
Target sequence (P9WHJ3 whole entry, looked up): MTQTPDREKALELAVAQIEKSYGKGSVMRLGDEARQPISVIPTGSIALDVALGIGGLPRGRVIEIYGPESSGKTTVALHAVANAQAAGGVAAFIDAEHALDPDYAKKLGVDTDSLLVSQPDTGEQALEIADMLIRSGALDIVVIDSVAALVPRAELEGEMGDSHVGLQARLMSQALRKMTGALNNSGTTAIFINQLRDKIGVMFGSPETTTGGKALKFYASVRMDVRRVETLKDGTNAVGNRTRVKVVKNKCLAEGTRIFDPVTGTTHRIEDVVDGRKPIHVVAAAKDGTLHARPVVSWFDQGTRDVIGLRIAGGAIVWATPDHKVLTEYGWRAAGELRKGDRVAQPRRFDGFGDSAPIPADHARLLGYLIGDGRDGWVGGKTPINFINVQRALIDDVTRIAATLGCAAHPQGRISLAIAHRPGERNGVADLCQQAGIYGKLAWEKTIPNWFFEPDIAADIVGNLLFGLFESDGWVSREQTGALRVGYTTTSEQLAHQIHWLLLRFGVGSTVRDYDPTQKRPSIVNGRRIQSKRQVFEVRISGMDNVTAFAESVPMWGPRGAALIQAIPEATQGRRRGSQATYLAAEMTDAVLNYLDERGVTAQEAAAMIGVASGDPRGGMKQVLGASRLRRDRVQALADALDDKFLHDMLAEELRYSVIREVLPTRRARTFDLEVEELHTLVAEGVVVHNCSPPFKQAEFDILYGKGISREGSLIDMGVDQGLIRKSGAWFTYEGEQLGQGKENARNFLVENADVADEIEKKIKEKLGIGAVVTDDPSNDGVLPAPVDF
Arbovirus inh repeat: further read-out of Arbovirus inh, marked with its call; inhibition, %; measured here: 10K subset replicate screen; many hits read low in the repeat;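 first of two repeat runs on a subset; 0% = infected and 100% = uninfected wells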
* marks the source's active call; other numbers are inactive results; ? = inconclusive; . = no result given.

SMILES	Mtb growth	Mtb bLac sens	Arbovirus inh	YopH inh	RecA intein inh	others
Fc1ccc(CNCc2ccco2)cc1	.	-1.3	.	.	0.4
COc1ccc(Nc2oc(-c3ccccc3)nc2C#N)cc1	5.9%	-3.8	-2.2	.	-2.0
CN1C(=O)c2cccc(NC(=O)CCc3ccccc3)c2C1=O	?	-2.4	5.6	-44.4	-2.0	Arbovirus inh repeat=0.3
C=CCN1CCN(C(=O)c2cc3c(s2)CCCC3)CC1	.	-10.6	.	.	-0.7
O=C(NCCOc1ccccc1)C1CCC(=O)N(CCc2ccccn2)C1 (stereo unspecified)	.	-5.6	.	.	1.1
CCOc1cc(-c2noc(CCC(=O)NCCc3ccccc3)n2)ccc1OC	.	-3.3	.	.	0.9
C[C@]12CCC(=O)C=C1[C@H](O)C[C@@H]1[C@@H]2[C@@H](O)C[C@@]2(C)[C@H]1CC[C@]2(O)C(=O)CO	-2.3%	-2.2	18.8	-14.3	2.1
Cc1ccc(/C(C#N)=C\c2cn(C)c3ccccc23)cc1	35.3%	98.5	-17.1	-19.7	.
O=C(NCCC(c1ccccc1)c1ccccc1)c1ccc(Br)o1	5.5%	-5.0	-6.3	-0.5	23.8
CC(=O)/C(=N\Nc1ccccc1)Sc1nncn1C	11.0%	-6.3	-16.5	-28.4	-2.9
CCOC(=O)Nc1ccc(C(=O)NCC2CCCO2)cc1 (stereo unspecified)	.	-1.7	5.6	-9.1	-5.1
COc1ccc(Nc2nc(=O)[nH]nc2C)cc1	-2.8%	3.3	5.6	-20.5	2.3
C=C(C)CCC1(C)NC(=O)N(c2ccccc2)N1 (stereo unspecified)	55.0%	77.4	.	.	0.1
COc1ccc(CNC(=O)c2nnn(Cc3ccc(OC)cc3)c2N)cc1	-2.7%	?	-1.9	-30.2	2.0	Arbovirus inh repeat=-4.6
Cc1c(CCC(=O)N[C@@H](CC(C)C)C(=O)O)c(=O)oc2cc3oc4c(c3cc12)CCCC4	.	0.7	.	.	-2.4

Quoted at random: two entries already listed.
SMILES	Mtb growth	Mtb bLac sens	Arbovirus inh	YopH inh	RecA intein inh	others
Fc1ccc(CNCc2ccco2)cc1	.	-1.3	.	.	0.4
C[C@]12CCC(=O)C=C1[C@H](O)C[C@@H]1[C@@H]2[C@@H](O)C[C@@]2(C)[C@H]1CC[C@]2(O)C(=O)CO	-2.3%	-2.2	18.8	-14.3	2.1

Next section
SMILES	Mtb growth	Mtb bLac sens	Arbovirus inh	YopH inh	RecA intein inh	others
CC(C)(C)C1CCC(=NNC(=S)Nc2cccnc2)CC1 (stereo unspecified)	6.8%	4.9	-5.1	.	-4.1
CCCCN(CC)C(=O)c1cc2c(=O)n3cccc(C)c3nc2s1	.	2.2	.	.	-14.8
O=c1nc2s/c(=C\c3ccco3)c(=O)n2nc1Cc1ccccc1	4.3%	16.9	7.4	-56.1	0.3	Arbovirus inh repeat=6.8
Oc1ccccc1CN(Cc1ccco1)CC(O)COCc1ccc(Cl)cc1 (stereo unspecified)	27.0%	19.9	-41.8	-2.9	9.4
COc1ccc(C(=O)Nc2ccccc2N2CCCC2)cc1	.	49.3	.	.	-0.2
CCOC(=O)C1C(=O)OC(C)(C)C1C(C)C(=O)c1ccc(OC)cc1 (stereo unspecified)	-2.7%	5.3	7.7	-12.8	3.7
CCOc1ccc(N(CC(=O)N/N=C/c2cc([N+](=O)[O-])ccc2Cl)S(C)(=O)=O)cc1	4.3%	7.3	15.2	-12.9	6.8
O=[N+]([O-])/C(=C\Nc1ccccc1)S(=O)(=O)c1ccccc1	-5.5%	-3.4	1.0	-27.5	6.3
COc1ccccc1-n1c(SCC(=O)Nc2ccc3c(c2)OCO3)nc2c(c1=O)SCC2	.	-1.7	1.4	-133.3	2.5
O=C(Cc1c(F)cccc1Cl)Nc1ccc(S(=O)(=O)NCC2CCCO2)cc1 (stereo unspecified)	0.2%	-8.8	-7.1	.	-1.6
Cc1ccn2c(C(=O)NNC(=O)Nc3ccc(Cl)cc3)c(C)nc2c1	.	-1.7	.	.	-0.5
COc1cccc(/C=C/c2nc(S(=O)(=O)c3ccccc3)c(N(C)C)o2)c1	.	-5.9	.	.	-24.1
Nc1nc2c(c(=O)[nH]1)C(c1cccc3ccccc13)C1=C(N2)c2ccccc2C1=O (stereo unspecified)	48.3%	.	12.9	.	.
CCN(CC)S(=O)(=O)c1cccc(-c2nnc(SCCCC(=O)c3ccccc3)o2)c1	-10.2%	6.4	-5.2	-22.1	3.4
CC(/C=N/NC(=O)c1cc(-c2ccc3ccccc3c2)n[nH]1)=C\c1ccco1	?	99.4	-6.4	-13.5	2.2
COc1ccc(OC)c(NC(=O)c2cccc(C)c2[N+](=O)[O-])c1	-9.6%	-2.4	7.3	.	3.9
COc1ccc(CNc2nc(Cl)c(C#N)s2)cc1	.	-1.6	.	.	-2.6
CC(CNC(=O)c1ccccc1[N+](=O)[O-])NC(=O)c1ccccc1[N+](=O)[O-] (stereo unspecified)	.	7.1	.	.	0.9
COc1cccc(Nc2ccc(C(=O)O)cc2[N+](=O)[O-])c1	-10.1%	-6.8	-0.1	-16.3	.
CCOC(=O)N1CCN(S(=O)(=O)CCNC(=O)c2ccccc2)CC1	.	-11.8	.	.	-0.5
O=C(Nc1ncnc2c1ncn2C1OC(COC(=O)c2ccccc2)C(F)C1O)c1ccccc1 (stereo unspecified)	-0.8%	2.3	-5.7	12.8	-0.5
O=C(Nc1nncs1)c1cc2c(s1)CCC2	-0.6%	3.1	0.9	.	-1.1
Cc1cc(NC(=O)COc2ccc3oc4ccccc4c3c2)no1	61.2%	73.6	-2.7	-38.2	0.4
O=C(NC(Cc1ccc(O)cc1)C(=O)O)/C(=C/c1ccccc1)NC(=O)c1ccccc1 (stereo unspecified)	.	3.6	.	.	0.0
COc1ccc(Nc2nnc(-c3ccc(O)cc3)c3ccccc23)cc1C(N)=O	0.9%	16.7	-4.7	.	1.1
O=[N+]([O-])c1ccccc1OCCCCN1CCCCC1	-1.9%	-8.6	0.3	-14.0	1.8
Cc1ccc(NC(=O)CSc2nnc(-c3n[nH]c4ccccc34)n2-c2ccccc2)c(C)c1	14.9%	-5.7	-0.8	-0.1	13.0
COc1ccccc1NS(=O)(=O)c1ccc(NC(=O)c2nc3nc(C)cc(C(F)F)n3n2)cc1	-5.4%	.	9.2	-29.1	-0.8
O=c1cc(N2CCC3(CC2)OCCO3)[nH]c(=O)n1-c1ccc(Cl)cc1	0.7%	-6.4	1.9	-22.0	-0.8
COc1ccc(C(=O)NCc2nnc(SCC(=O)NO)n2Cc2ccccc2)cc1	83.2%	-10.2	0.7	.	1.4

Molecules listed so far that have a cyano group, in the order listed:
SMILES	Mtb growth	Mtb bLac sens	Arbovirus inh	YopH inh	RecA intein inh	others
COc1ccc(Nc2oc(-c3ccccc3)nc2C#N)cc1	5.9%	-3.8	-2.2	.	-2.0
Cc1ccc(/C(C#N)=C\c2cn(C)c3ccccc23)cc1	35.3%	98.5	-17.1	-19.7	.
COc1ccc(CNc2nc(Cl)c(C#N)s2)cc1	.	-1.6	.	.	-2.6

Other results
SMILES	Mtb growth	Mtb bLac sens	Arbovirus inh	YopH inh	RecA intein inh	others
O=C1/C(=C/c2ccccc2)CSc2sccc21	15.0%	-2.6	4.0	-29.6	1.3
CCc1cc(C(=O)c2ccc(OC)cc2)c(NC(=O)CN2CCCCC2)s1	-4.1%	47.5	.	.	-0.2
CCCn1c2ccccc2c2cnn(CC(=O)NCCCOC)c(=O)c21	.	4.6	.	.	0.9
COc1ccc(S(=O)(=O)N2CCCCCC2)cc1C(=O)N(C)Cc1ccc(C)cc1	.	-3.3	.	.	4.1
COc1ccc(N2CCN(C(=O)CCCC(=O)c3ccccc3)CC2)cc1	.	?	.	.	-2.3
CCOCCCn1c(SCC(=O)NC(C)C)nc2ccccc2c1=O	-9.0%	-0.5	4.2	-4.8	-2.3
O=C(CNC(=O)[C@@H]1Cc2ccccc2CN1)NC1CCCCC1	.	5.2	.	.	-2.4
O=C(NC(=S)NC1CCCCC1)c1ccc(F)cc1	.	6.3	.	.	3.3
CC(C)N1CCC(N2CCN(Cc3ccc(-c4ccccc4Cl)o3)CC2CCO)CC1 (stereo unspecified)	-4.4%	-4.9	-33.3	.	3.1
CC(C)C[C@H]1COCCS(=O)(=O)N1Cc1ccccc1F	5.5%	-2.0	.	.	1.9
Cc1[nH]c(=S)[nH]c(=O)c1CCCO	-1.9%	-6.4	2.3	.	0.0
COc1ccc(N=C2SC(C(=O)Nc3ccc(F)cc3)CC(=O)N2C)cc1 (stereo unspecified)	0.3%	-6.4	-3.9	.	4.5
CN(C)CCC(=O)c1ccc(F)cc1	4.2%	45.6	.	.	1.7
CSCc1ccc(C(=O)N2CCC(CCC(=O)N(C)Cc3ccccc3)CC2)o1	.	0.4	.	.	1.6
COC(=O)CNC(=O)CNC(=O)Nc1ccccc1	-6.2%	89.4	-1.9	-19.5	-3.8
COC(=O)c1ccccc1NC(=O)CN(C1CCCCC1)S(C)(=O)=O	-5.1%	-9.7	-2.6	-30.2	0.6
CCOC(=O)C1(CC2CC2)CCN(C(=O)c2cccnc2C)CC1	-16.1%	-10.2	0.5	.	.
O=C(CSc1nc2nc3c(cc2c(=O)n1-c1ccccc1)CCCC3)Nc1cccc2ccccc12	3.4%	28.0	-4.4	-8.2	7.0
CSc1ccccc1C(=O)Nc1ccc(C)c(C)c1	3.1%	41.2	5.4	-24.1	.
c1ccc2c(c1)oc1c(N3CCN(Cc4ccc5c(c4)OCO5)CC3)ncnc12	5.8%	.	-11.5	-11.6	9.5
O=C(CN1CCN(Cc2ccccc2F)C1=O)NCCc1ccc(Cl)cc1	-1.1%	-7.2	0.2	-3.7	2.9
CCCCc1nnc(NC(=O)COC)s1	0.2%	-6.4	-0.9	.	-1.9
COc1ccc(NC(=O)CC(C)CC(=O)NCc2ccccc2)c(OC)c1 (stereo unspecified)	.	2.0	.	.	-0.7
COc1ccc(N2CCN(CCCNC(=O)CCCn3c(=O)[nH]c4ccsc4c3=O)CC2)cc1	.	-4.2	2.9	-69.8	-1.9	Arbovirus inh repeat=1.6
Cc1cc(C(=O)CN2C(=O)NC(Cc3c[nH]c4ccccc34)C2=O)c(C)n1C (stereo unspecified)	-12.1%	0.2	6.0	-31.6	1.0
CCCCNC(=S)NNC(=O)c1ccco1	-2.2%	-25.0	6.8	-27.1	-3.3
CCSc1nnc(C)c(=O)n1COC(=O)c1ccc(S(=O)(=O)N2CCCC2)cc1	0.5%	9.2	-3.2	-13.1	1.7
O=C(Nc1sc2c(c1C(=O)O)CCC2)c1ccc(F)cc1	-2.9%	14.6	42.1*	.	-0.5
CCOC(=O)c1c(C)[nH]c(C)c1C(=O)COc1ccc(NC(=O)c2ccco2)cc1	3.2%	45.4	-4.1	-16.3	2.0
CNC(=O)[C@@]1(C)C=C[C@@H](Cc2ccccc2)N1C(=O)OC	-3.2%	-4.3	2.3	0.1	2.7
Cc1ccc2nc(CSc3nnc(-c4ccco4)o3)cc(=O)n2c1	.	4.0	-2.7	-37.5	-0.4
CCCn1c(=O)c2sccc2n2c(CCCC(=O)NC3CCN(Cc4ccccc4)CC3)nnc12	.	-9.4	.	.	-2.4
NC(=O)c1c(NC(=O)c2ccncc2)sc2c1CCCC2	-4.8%	8.5	0.6	.	-1.0
COc1ccc(C(=O)NCc2nnc(SCC(=O)NCCc3ccccc3)o2)cc1	.	73.4	.	.	-0.1
CCC(C)C(NC(=O)c1ccccc1NC(=O)c1ccccc1)C(=O)N1CCOCC1 (stereo unspecified)	-1.0%	-5.4	-10.5	-38.0	-2.4
N#CCOc1ccccc1/C=N/n1nnnc1N	.	-8.4	.	.	0.5
Cc1ccc(S(=O)(=O)N2CCN(c3ncnc4scc(-c5ccc(F)cc5)c34)CC2)cc1	.	-5.8	.	.	8.5
CCOc1ccc(N2C(=O)CCC2=O)cc1	-8.0%	-3.5	2.5	32.1	6.6
CCC1CCCCN1CCCNC(=O)c1cc2c(Cl)nc3ccccc3c2s1 (stereo unspecified)	7.2%	0.6	-29.4	.	-1.3
COc1ccc(/C=N/Nc2nc(N)cc(Cl)n2)cc1OC	-11.5%	-4.0	-1.4	.	-3.1
O=C(NC1CC1)C1CCN(C2CCN(C(=O)c3ccc(C(F)(F)F)cc3)CC2)CC1	.	-6.4	.	.	2.6
CCCn1c(=S)[nH]c2cc(C(=O)N3CCc4ccccc43)ccc2c1=O	1.0%	-5.9	5.5	-19.3	-0.8
Cc1cc(C(=O)N2CCC(CO)(Cc3cccc(C(F)(F)F)c3)CC2)n[nH]1	.	-1.5	.	.	-0.6
CC1CCN(C(=O)CSc2nnc(-c3ccco3)o2)CC1	-3.9%	1.0	-0.7	-37.8	5.0	Arbovirus inh repeat=0.2

Assay outcomes: PubChem BioAssay, several laboratories

This is a subset, so the mix of outcomes need not match the whole.
